# HPGD inh – blocks human HPGD enzyme activity. purified HPGD, NADH fluorescence kinetic, PGE2 substrate. Potency, µM, inactives show top-dose activity change, negative = inhibition, most hits filed as inhibitors. 4.3% of 150,000 active; active = well fitted inhibition curve with a large enough effect (not every such curve was filed as active); inconclusive = small, poorly fitted or top-dose-only effect, or another doubt; inactive = no such curve, though single readings can be large or run the other way;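 further: top concentration of the series not given in the record; plate controls included wells without enzyme; inactives centre near -10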
# Target sequence (P15428 whole entry, looked up): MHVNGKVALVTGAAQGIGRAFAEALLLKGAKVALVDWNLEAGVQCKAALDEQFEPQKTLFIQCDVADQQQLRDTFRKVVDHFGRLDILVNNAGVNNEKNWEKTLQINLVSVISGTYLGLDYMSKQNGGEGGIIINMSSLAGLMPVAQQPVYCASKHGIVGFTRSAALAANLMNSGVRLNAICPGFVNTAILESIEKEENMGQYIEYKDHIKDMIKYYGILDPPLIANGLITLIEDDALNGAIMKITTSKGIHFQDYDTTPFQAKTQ
#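 NADH formation kinetics: reaction with 30 uM PGE2 and 1 mM NAD+ (final), 20 nM enzyme, Tris-HCl pH 8 with Tween 20, after 15 min compound preincubation at room temperature. Fluorescence change, last versus first of five reads.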
# Starred values were filed as active, the others as inactive; ? = inconclusive; ! = repeats disagree. On the % scale 0 is the no-effect control and ±100 the full control effect; potency means the concentration at half of the fitted maximal effect. An excerpt; count on the stated rates, not on these rows.
HPGD inh,smiles
-12%,Oc1c(C=C2N=c3ccccc3=N2)sc(=S)n1C1CCCC1
?,CC(C)Cn1c(CCC(=O)O)ccc1-c1cccs1
-10%,CC(C)CNC(=S)NC(=O)c1ccc(F)cc1
-18%,COc1ccc(CCN2C(=O)NC(NC(C)=O)(C(F)(F)F)C2=O)cc1OC (stereo unspecified)
-7%,CC(=O)c1ccc(S(=O)(=O)NCCCC(=O)NCCc2ccccn2)cc1
-13%,IC(I)I
-14%,CC(=O)Nc1nc(N)n(-c2ccccc2)n1
-22%,O=C(NNC1=C(C(=O)C(F)(F)F)CCC1)c1ccccc1O
-11%,COc1ccccc1-c1cc(C(=O)Nc2c(C)n(C)n(-c3ccccc3)c2=O)no1
5%,Cc1nc(Oc2ccccc2)c2ccccc2n1
-18%,CCCc1cc(C(=O)Nc2cccc(Cl)c2)no1
-4%,CCNC(=O)c1c(NC(=O)C2COc3ccccc3O2)sc2c1CCCC2 (stereo unspecified)
14µM*,COc1ccccc1CNC(=O)CSc1ccc(C)cc1
3%,COC(=O)C1CCN(S(=O)(=O)c2ccc(OC)cc2)CC1
-29%,COc1ccc(N(C)S(=O)(=O)c2ccc3c(c2)oc(=O)n3C)cc1
-23%,CCOC(=O)C1CCN(C(c2cc3ccc(C)cc3[nH]c2=O)c2nnnn2C2CCCCC2)CC1 (stereo unspecified)
2%,CCCC1=C(C(=O)OCC)C(c2ccccc2OCC)NC(=O)N1C (stereo unspecified)
-4%,O=C(Oc1ccccc1C(=O)Oc1ccccc1)c1ccco1
-6%,COCCOC(=O)C1=C(C)N(Cc2ccccc2)C(=O)NC1c1ccc(OC)cc1 (stereo unspecified)
-8%,CC1=C(C(=O)N2CCc3ccccc32)C2(CCC(C)CC2)OC1=O (stereo unspecified)
-4%,Cc1ccc2c(Cl)cc(Cl)c(OCc3c(C)noc3C)c2n1
-12%,O=C(CCCn1c(=O)[nH]c2cc(Cl)ccc2c1=O)NCCN1CCN(c2ccccc2)CC1
-1%,Cc1ccc(S(=O)(=O)N[C@H](CN)C(=O)O)cc1
8%,CCc1nnc(NC(=O)NCN2C(=O)C3C4C=CC(C4)C3C2=O)s1 (stereo unspecified)
-8%,C=CCOC(=O)/C(=C\c1ccc(OC)cc1)NC(=O)c1ccco1
-12%,COc1ccc(CNC(=O)COC(=O)CC2CCCC2)cc1
-13%,CC1CN(CCC(=O)Nc2ccc3c(c2)OCO3)CC(C)O1 (stereo unspecified)
16µM*,O=C(NCc1ccc(Cl)cc1)c1ccc(Cl)cc1[N+](=O)[O-]
-1%,COc1ccc(C2NC(=O)NC(O)(C(F)(F)F)C2C(=O)c2ccc(F)cc2)cc1 (stereo unspecified)
-17%,O=C(NC1CCCC1)c1noc2c1CCCCC2

# Overlap with the part before: 2 compounds, followed by the next part.
HPGD inh,smiles
-1%,COc1ccc(C2NC(=O)NC(O)(C(F)(F)F)C2C(=O)c2ccc(F)cc2)cc1 (stereo unspecified)
-17%,O=C(NC1CCCC1)c1noc2c1CCCCC2
-13%,CS(=O)(=O)N1CCN(C(=O)c2c(F)cccc2F)CC1
?,COC(=O)Nc1nc2ccc(-c3n[nH]c(=O)c4ccccc34)cc2[nH]1
-8%,Cc1ccc(NC2=NCC(=O)N2Cc2ccc3c(c2)OCO3)cc1
-2%,COc1ccccc1Nc1nc2nonc2nc1N1CCC(C)CC1
32µM*!,Oc1c(Cl)cc(Cl)cc1Sc1cc(Cl)cc(Cl)c1O
?,CC(=O)Nc1ccc(S(=O)(=O)N2CCN(c3nc(NC4CCCC4)c4ccccc4n3)CC2)cc1
-10%,Cc1ccc(-n2c(SCC(=O)N/N=C/c3ccc(C)s3)nnc2-c2ccccc2)cc1
-8%,NC(=O)NCC12CC3CC(CC(C3)C1)C2
-1%,CCCn1c(NCc2ccccn2)nc2ccccc21
?,Clc1ccc(-c2csc(NNC3=NCCCCC3)n2)cc1
-4%,O=C(Nc1ccc(Cl)c(Cl)c1)Nc1nnc(CSc2ccccc2)s1
-6%,Cc1ccc2c(c1)N(C(=O)CCC(=O)O)CCO2
-14%,COc1ccc(/C=N/NC(=O)c2c(-c3ccccc3)noc2C)cc1
0%,CCCCCCCOC(=O)C1=C(C)Nc2ncnn2C1c1cccs1 (stereo unspecified)
10µM*,N=C1C=CC(=C(c2ccc(N)cc2)c2ccc(N)cc2)C=C1

# Exported bar-delimited: 19 of the compounds above.
SMILES | HPGD inh
Oc1c(C=C2N=c3ccccc3=N2)sc(=S)n1C1CCCC1 | -12%
CC(C)Cn1c(CCC(=O)O)ccc1-c1cccs1 | ?
CC(C)CNC(=S)NC(=O)c1ccc(F)cc1 | -10%
COc1ccc(CCN2C(=O)NC(NC(C)=O)(C(F)(F)F)C2=O)cc1OC (stereo unspecified) | -18%
CC(=O)c1ccc(S(=O)(=O)NCCCC(=O)NCCc2ccccn2)cc1 | -7%
IC(I)I | -13%
CC(=O)Nc1nc(N)n(-c2ccccc2)n1 | -14%
O=C(NNC1=C(C(=O)C(F)(F)F)CCC1)c1ccccc1O | -22%
COc1ccccc1-c1cc(C(=O)Nc2c(C)n(C)n(-c3ccccc3)c2=O)no1 | -11%
Cc1nc(Oc2ccccc2)c2ccccc2n1 | 5%
CCCc1cc(C(=O)Nc2cccc(Cl)c2)no1 | -18%
CCNC(=O)c1c(NC(=O)C2COc3ccccc3O2)sc2c1CCCC2 (stereo unspecified) | -4%
COc1ccccc1CNC(=O)CSc1ccc(C)cc1 | 14µM*
COC(=O)C1CCN(S(=O)(=O)c2ccc(OC)cc2)CC1 | 3%
COc1ccc(N(C)S(=O)(=O)c2ccc3c(c2)oc(=O)n3C)cc1 | -29%
CCOC(=O)C1CCN(C(c2cc3ccc(C)cc3[nH]c2=O)c2nnnn2C2CCCCC2)CC1 (stereo unspecified) | -23%
CCCC1=C(C(=O)OCC)C(c2ccccc2OCC)NC(=O)N1C (stereo unspecified) | 2%
O=C(Oc1ccccc1C(=O)Oc1ccccc1)c1ccco1 | -4%
COCCOC(=O)C1=C(C)N(Cc2ccccc2)C(=O)NC1c1ccc(OC)cc1 (stereo unspecified) | -6%

# Later entries
HPGD inh,smiles
-1%,CCOC(=O)c1cnc2c(C)cccc2c1Nc1ccc(N2CCOCC2)cc1
-3%,COC(=O)c1sc(S(=O)(=O)N2CCCCC2)c(C(=O)OC)c1C
-21%,S=C(NCc1ccccc1)NCC1COc2ccccc2O1 (stereo unspecified)
-13%,O=C(Cn1c(C(F)(F)F)nc2ccccc21)c1ccc(F)cc1
-6%,COc1ccc(OC)c(/C=N/NC(=O)c2cc[n+](Cc3ccccc3)cc2)c1
-15%,CCc1ccc(/C=N/NC(=S)NCCc2ccccc2)cc1
-5%,CCN(CC)C(=O)C1=C(C)Nc2nc3ccccc3n2C1c1cccc(OC)c1 (stereo unspecified)
?,COC(=O)N1CCC[C@@]2(CCN(c3ccccn3)C2)C1
-18%,Cc1cc(-c2ccccc2)nn1-c1nc2c(c(=O)[nH]c(=O)n2C)n1C
?,COc1ccc(C2=NN(C(=O)c3cccs3)C(c3ccc(OC)cc3)C2)cc1 (stereo unspecified)
-11%,CCn1c(SCC(=O)Nc2nc3ccc(OC)cc3s2)nnc1-c1ccoc1C
-4%,O=C(NCCCN1CCOCC1)c1ccc(CS(=O)(=O)c2ccc(Br)cc2)o1
-7%,Cc1c(Br)c(C(F)(F)F)nn1CC(=O)NCc1ccccc1
-5%,CCOc1ccccc1NC(=O)C(CC(C)C)NC(=O)C1CCCCC1 (stereo unspecified)
?,COc1ccc(/C=C2/SC(=O)N(CC(O)Cn3c4ccccc4c4ccccc43)C2=O)cc1 (stereo unspecified)
22µM*,CC1CCCCN1S(=O)(=O)c1ccc(NC(=O)c2cccc(-n3cnnn3)c2)cc1 (stereo unspecified)
-14%,COc1cc2oc(=O)cc(-c3ccc(-c4ccc(C#N)cc4)cc3)c2c(OC)c1OC
-9%,Cc1cc2c(N3CCCCC3C)ncnc2s1 (stereo unspecified)
0%,CCC1(C(=O)c2ccc(Cl)cc2)C2c3ccccc3OC(=O)C21C(=O)Nc1ccccc1 (stereo unspecified)
14µM*,O=C(c1ccc(Br)s1)N1CCCC1
?,CCNC(=O)c1cc2c(=O)n3cccc(C)c3nc2n(Cc2ccc(C)cc2)c1=N
-29%,COc1ccc(NC(=O)C2CCCN(c3c4c(nc5ncnn35)CCC4)C2)cc1 (stereo unspecified)
-12%,COc1cccc(-c2nn(-c3ccccc3)cc2CO)c1
-17%,CSc1nnc2c(n1)OC(C)N(C(=O)c1ccccc1)c1ccccc1-2 (stereo unspecified)
?,Cc1ccc(-c2ccc(C(=O)NCc3ccc(Cl)cc3)o2)c2ccccc12
-11%,COc1ccccc1NS(=O)(=O)c1cc(NC(=O)c2ccc3c(c2)OCCO3)ccc1C
-7%,O=C(NCCCCNC(=O)c1ccc(Cl)s1)c1ccc(Cl)s1
-10%,CC1(C)CC(=O)C=C(Nc2ccc(C(=O)O)cc2)C1
-3%,c1ccc(CCc2cccnc2)nc1
-13%,Cc1nonc1NC(=O)CSc1nc(C2CCCCC2)nc2ccccc12
-7%,O=C(NCc1ccccc1)C(Cc1ccccc1)N1C(=O)C2C3CCC(C3)C2C1=O (stereo unspecified)
-7%,COc1ccc(-c2nnc(SCC(=O)Nc3ccc(C)cc3)n2C)cc1
-7%,CC(=O)N1CCN2C(=O)C1CCCC(=O)c1cc(C3CCCCC3)ccc12 (stereo unspecified)
-16%,O=[N+]([O-])c1cccnc1N1CCC(c2cc(-c3cccc(C(F)(F)F)c3)n[nH]2)CC1
-1%,CN1CCN(CCc2nc3cc(NC(=O)COc4ccccc4)ccc3n2C)CC1
?,Cc1ccc(CNC(=O)c2csc3c2CCCCC3)cc1
-23%,Cc1ccc(C2c3c(oc4ccccc4c3=O)C(=O)N2CCCN2CCOCC2)o1 (stereo unspecified)
-20%,CCOc1ccc(C(=O)Nc2ccccc2CC)cc1[N+](=O)[O-]
?,Cc1ccc(C)c(CN2C(=O)C3CCCN3c3ccc(S(=O)(=O)N4CCOCC4)cc32)c1 (stereo unspecified)
-3%,c1ccc2[nH]c(NC3=NCCC3)nc2c1
-27%,Cc1ccc(S(=O)(=O)N(CC(=O)N/N=C/c2ccco2)Cc2ccccc2)cc1
1%,CCOc1ccccc1NC(=O)NC1CCN(CC(=O)Nc2ccc3c(c2)OCCO3)CC1
-10%,Cc1nnc(SCCN2CCOCC2)c2nn(-c3ccccc3F)c(C)c12
-23%,CCCCOc1ccc(/C=C/C(=O)NCCc2nc3ccccc3[nH]2)cc1
-10%,CN(CCC(=O)Nc1ccc2c(c1)OCO2)Cc1ccccc1
?,NC(=S)NNC(N)=S
-15%,Cc1ccc(N=Cc2ccc(O)cc2O)cc1F
-8%,COCCCNC(=O)CSC1=Nc2ccccc2C2=NC(Cc3c[nH]c4ccccc34)C(=O)N12 (stereo unspecified)
-5%,O=[N+]([O-])c1ccc2c(c1)C(O)n1nc(-c3ccc(Cl)cc3Cl)nc1S2 (stereo unspecified)
-15%,CCCn1nc([N+](=O)[O-])c(C(C#N)c2nc3ccccc3o2)c(Cl)c1=O (stereo unspecified)
-20%,Cc1ccc(N(CC(O)COCc2ccco2)S(=O)(=O)c2ccc(C)cc2)cc1 (stereo unspecified)
-14%,Cc1cc(=S)cc(C)n1CCO
-3%,O=C(COC(=O)Cn1cnc2ccccc21)NCCC1=CCCCC1
?,CCN1CCCC1CNc1ncnc2c1[nH]c1ccc(F)cc12 (stereo unspecified)
-17%,Cc1ccccc1OCc1nnc(SCC(=O)Nc2ccc3nc(SCC(=O)NC(C)(C)C)sc3c2)n1C
-8%,CCOc1ccc(NC(=O)CN(C)c2ccc(S(=O)(=O)N3CCOCC3)cn2)cc1OCC
?,Cc1ccc2nc(/C(C#N)=C\c3ccc(Oc4ccc([N+](=O)[O-])cn4)cc3)[nH]c2c1
32µM*,COc1ccc(Oc2ncc3ncc(=O)n(Cc4ccc(F)cc4)c3n2)cc1
?,COC(=O)C1(C)Nc2ccccc2C(=O)N1c1ccccc1C (stereo unspecified)
-15%,CCOC(=O)N1CCN(C(=O)c2ccccc2N(C)S(C)(=O)=O)CC1

# (next part)
HPGD inh,smiles
-4%,CCSCc1nnc(SCC(=O)Nc2nc3ccccc3s2)n1C
-1%,Cc1ccccc1Cn1ccc(=NCc2ccccc2)cc1
-10%,CCN(CC)CCCN1C(=O)C(O)=C(C(=O)c2sc(C)nc2C)C1c1ccco1 (stereo unspecified)
-11%,Clc1ccc(/C=N/Nc2nn[nH]n2)cc1
-7%,CC(=O)c1c(C)n([O-])c2ccccc2[n+]1=O
-26%,Cc1ccc(-c2nnc(N3CCN(C(=O)CSc4ncn[nH]4)CC3)c3ccccc23)cc1
-17%,Nc1nc(CN2CCN(c3ccccn3)CC2)nc(Nc2ccc(Cl)cc2)n1
-6%,CCn1c(NC(C)=O)nc2ccccc21
?,COC(=O)CC1c2ccccc2C=C(/C=C/c2ccc3c(c2)OCO3)N1C(=O)OC (stereo unspecified)
?,Clc1ccc(Oc2nc3ccccc3n3cccc23)cc1
-9%,Cc1ccc(S(=O)(=O)CNC(=S)c2cccc(C)c2)cc1
-16%,Cc1cc(/C=N\NC(=O)COc2cccc3cccnc23)c(C)n1-c1ccccc1
-11%,O=C(/C=C/c1ccc(Cl)cc1)Nc1ccccc1N1CCOCC1
?,C=CCn1c(-c2csc(-c3ccccc3)n2)n[nH]c1=S
?,Cn1c(C(=O)NCc2ccccn2)cc2c(=O)n3ccccc3nc21
-3%,O=C(Nc1ccncc1)c1cc([N+](=O)[O-])ccc1Cl
5%,Cc1cc(NC(=O)Cn2nnc(-c3ccccc3N)n2)no1
?,COc1ccc(/C=C(\C#N)C(=O)OCC(=O)NC(C)c2ccccc2)cc1 (stereo unspecified)
?,Cc1ccc(C=Nc2ccccc2C(=O)Nc2ccccc2)cc1
8.9µM*,Cc1cccc(CNc2ccnc(-c3ccc(C(=O)N(C)C)cc3)n2)c1

# Source: PubChem
